KCNQ2 enhance – potentiators of rat KCNQ2 potassium channel; B-score at 10 µM; CHO-K1 KCNQ2, FluxOR thallium flux fluorescence; stronger effect = higher value; hit rate 0.54% among 310,000; Potassium voltage-gated channel subfamily KQT member 2 (Rattus norvegicus), O88943;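 active = fluorescence ratio B-score at least 3 SD of library B-scores, with initial fluorescence B-score within 3 SD, cut at about 5.3 in these data; same plate scores as AID 2156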;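 also: B-score of peak minus minimum over baseline fluorescence ratio after K+ and Tl+ stimulus; positive B-score means potentiation of KCNQ2 with more thallium influx and brighter signal; only the inactives scoring about 0 or higher are listed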
Target sequence (O88943 whole entry, looked up): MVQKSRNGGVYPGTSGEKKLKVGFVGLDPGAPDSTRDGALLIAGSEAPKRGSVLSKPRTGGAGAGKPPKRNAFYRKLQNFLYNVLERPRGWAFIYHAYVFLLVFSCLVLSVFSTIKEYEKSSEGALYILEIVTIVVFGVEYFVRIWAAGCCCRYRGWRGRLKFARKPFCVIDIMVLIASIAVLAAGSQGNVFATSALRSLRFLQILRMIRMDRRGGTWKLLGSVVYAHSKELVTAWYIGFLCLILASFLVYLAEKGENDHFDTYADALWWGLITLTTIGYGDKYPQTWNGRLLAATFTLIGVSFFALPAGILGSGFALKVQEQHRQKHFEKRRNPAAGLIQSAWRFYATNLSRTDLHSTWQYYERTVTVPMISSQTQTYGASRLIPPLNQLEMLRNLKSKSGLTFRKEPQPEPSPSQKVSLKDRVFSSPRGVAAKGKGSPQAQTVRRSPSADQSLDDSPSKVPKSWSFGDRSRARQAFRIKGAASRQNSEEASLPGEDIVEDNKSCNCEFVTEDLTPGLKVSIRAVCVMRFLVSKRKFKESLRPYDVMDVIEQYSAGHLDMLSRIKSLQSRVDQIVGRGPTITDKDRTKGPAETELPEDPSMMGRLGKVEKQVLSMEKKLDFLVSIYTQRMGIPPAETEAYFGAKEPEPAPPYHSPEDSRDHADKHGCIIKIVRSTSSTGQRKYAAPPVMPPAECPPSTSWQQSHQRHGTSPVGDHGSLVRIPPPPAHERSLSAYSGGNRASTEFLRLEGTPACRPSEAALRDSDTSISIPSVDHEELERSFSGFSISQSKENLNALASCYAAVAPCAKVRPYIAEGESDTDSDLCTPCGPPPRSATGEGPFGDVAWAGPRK
KCNQ2 enhance baseline – recorded beside KCNQ2 enhance, whose call it bears; B-score; compound at 10 µM; measured here: initial fluorescence intensity artifact check;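 brightness before thallium and not channel activity; 0 = typical well and far values either way flag optical interference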
* hit, by the source's call.

SMILES | KCNQ2 enhance | KCNQ2 enhance baseline
COc1ccccc1NS(=O)(=O)c1cccc(C(=O)NNC(=O)C(NC(N)=O)C(C)C)c1 (stereo not given) | 0.32 | 0
CCOC(=O)c1c(C)n(-c2ccc(C)cc2)c2c(CC(C)=O)c(Br)c(OC)c(O)c12 | 1.7 | 0
CC(=O)c1cccc(N(CC(=O)Nc2ccc(S(=O)(=O)N3CCOCC3)cc2)S(C)(=O)=O)c1 | 0.05 | 0.06
O=S(=O)(Cc1ccc(Cl)cc1)c1ncc(CO)n1Cc1ccccc1 | 0.29 | 1.3
CCn1c(Cn2nnc(-c3ccccc3)n2)nnc1SCC(=O)Nc1ccc(N(C)C)cc1 | 0.02 | 0.31
CCn1c(=O)c2c(nc3n2CCCN3c2cccc(C)c2)n(C)c1=O | 0.01 | -1.8
O=C(NC(Cc1ccccc1)C(=O)O)OCc1ccccc1 (stereo not given) | 0.02 | 1.7
CCOCc1cc(C)[nH]c(=O)c1C#N | 0.89 | 0.35
Cc1cccc(CS(=O)(=O)Cc2ccc(C(=O)NCCCN3CCOCC3)o2)c1 | 0.62 | 1.1
O=C(CCn1c(=O)oc2ccccc21)N1CCN(C(c2ccccc2)c2ccccc2)CC1 | 0.84 | -2
CC1=C(C(N)=O)C(c2cccs2)n2nc(-c3cccc(Cl)c3)nc2N1 (stereo not given) | 5.8* | 0*
COc1ccc(NS(=O)(=O)c2ccc(N3CCCC3)c(NC(=S)Nc3cccc(S(=O)(=O)N(C)C)c3)c2)cc1 | 0.14 | 1.5
O=C(CC(=O)Nc1cccc(Cl)c1)N/N=C\c1ccccc1 | 1.1 | -0.21
CCN(CC)c1ccc(/C=N/NC(=O)c2cccc(S(=O)(=O)N3CCOCC3)c2)cc1 | 1.2 | 0.04
S=c1[nH]nc(-c2ccc3ccccc3n2)n1-c1cc(Cl)cc(Cl)c1 | 3.8 | -0.58
Cc1ccc(-c2n[nH]c(=O)c3ccccc23)cc1S(=O)(=O)NC(C)(C)C | 0.65 | -1.9

Looked up one by one from the list above:
SMILES | KCNQ2 enhance | KCNQ2 enhance baseline
S=c1[nH]nc(-c2ccc3ccccc3n2)n1-c1cc(Cl)cc(Cl)c1 | 3.8 | -0.58
Cc1ccc(-c2n[nH]c(=O)c3ccccc23)cc1S(=O)(=O)NC(C)(C)C | 0.65 | -1.9
CCN(CC)c1ccc(/C=N/NC(=O)c2cccc(S(=O)(=O)N3CCOCC3)c2)cc1 | 1.2 | 0.04

Following part.
SMILES | KCNQ2 enhance | KCNQ2 enhance baseline
Cc1ccc(OCC(=O)N2CCC(N3CC(C)CC(C)C3)CC2)cc1 (stereo not given) | 0.01 | -0.97
CCCCc1ccc(NC=C2C(=O)OC3(CCCCC3)OC2=O)cc1 | 0.23 | -0.81
Oc1ccc(Cl)cc1C=NCCc1ccccc1 | 0.63 | 3
O=C(O)c1cc(NCc2ccc3c(c2)OCO3)ccc1N1CCOCC1 | 1.6 | -0.31
COc1cccc(CN2CCC(Oc3ccc(C(=O)NCc4ccccn4)cc3)CC2)c1O | 1.4 | -0.99
CC(C)c1ccc(OCC(=O)Nc2ccncc2)cc1 | 1.5 | 0.82
CC(=O)c1ccc(NC(=O)C2CC(c3ccc(F)cc3)=NO2)cc1 (stereo not given) | 0.04 | -0.69
Fc1ccccc1/C=N/n1c(C2CCCCC2)n[nH]c1=S | 2.1 | -0.46
NC(=O)c1ccccc1OCC(=O)N1CCCc2ccccc21 | 0.4 | 0.84
CCCCc1cc(=O)oc2c(C)c(OCC(=O)N3CCCC3)ccc12 | 0.29 | -2.2
COc1cc(OC)c(OC)cc1/C=N/NC(=O)c1ccc2nc[nH]c2c1 | 0.11 | -0.58
Cc1ccc(NC(=O)C2=C(C(=O)O)CCCC2)cc1F | 1.5 | 0.02
NNC(=O)CC1NCCN(Cc2ccccc2)C1=O (stereo not given) | 0.15 | 0.01
COC(=O)CNC(=O)C1CCN(c2nc(C)cc(C)n2)CC1 | 1.6 | 1.2
COc1ccc(NC(=S)NCC(c2cccnc2)N2CCOCC2)cc1 (stereo not given) | 0.41 | 0.41
Cn1c(Cc2ccc3c(c2)OCO3)nnc1SCC(=O)NC(C)(C)C | 0.02 | -0.02
COc1cc([N+](=O)[O-])c2nccnc2c1 | 0.43 | -0.29
O=C(CC(=O)N1CCN(c2ccccn2)CC1)Nc1ccc2nc3n(c(=O)c2c1)CCCCC3 | 1.6 | -2.3
O=C(O)CS/C(=C\c1ccc(F)cc1)c1nc2ccccc2s1 | 0.47 | -0.01
OC1CCN(CC(O)C(F)(F)F)CC1 (stereo not given) | 1.1 | -0.61
N#Cc1cc2c(cc1NC(=O)CCn1cnnn1)OCO2 | 0.14 | -1.8
CCOC(=O)N/N=C\c1sccc1C | 2.7 | -1.5
CCn1c(CC(=O)Nc2ccc(C)cc2)n[nH]c1=S | 0.47 | -1.3
Cc1ccc(C(=O)Nc2ccccc2C(=O)NC(Cc2c[nH]c3ccccc23)C(=O)O)cc1 (stereo not given) | 0.77 | 0.5
CCOc1ccc(/C=C2\SC(=O)N(c3ccc(O)cc3)C2=O)cc1OC | 0.63 | 0.28
O=C(c1cc([N+](=O)[O-])cc([N+](=O)[O-])c1)N1CCOCC1 | 1.6 | 1.1
NC(=O)c1ccc(NC(=O)COC(=O)c2c3c(nc4ccccc24)/C(=C\c2cccs2)CCC3)cc1 | 0.82 | -0.02
Cc1ccc(/C=C/C(=O)N2CCCC(C(N)=O)C2)o1 (stereo not given) | 0.56 | -0.38
O=C(NCC1CCCO1)c1cnn2c1NC(c1ccccc1)CC2C(F)(F)F (stereo not given) | 0.42 | 0.7
CCN(CC(=O)Nc1c(F)cccc1F)C(=O)c1cccc(S(=O)(=O)N2CCc3ccccc3C2)c1 | 0.56 | -0.27
CCOc1ccc2nc(SCC(=O)Nc3ccc4c(c3)OCO4)sc2c1 | 0.47 | -0.04
CC(C)[C@H](Nc1ncnc2c1oc1ccccc12)C(=O)O | 0.37 | 2.8
CN(C(=O)c1ccccn1)c1nnc(-c2ccccn2)s1 | 0.84 | -0.31
CCOC(=O)c1c(C)oc2c1c(C(c1cccnc1)N1CCCCC1)c(O)c1ccccc12 (stereo not given) | 2.5 | -0.02
c1ccc(-n2cccc2CNC2CCCCC2)cc1 | 0.6 | 1.1
O=C(O)c1ccc(N=NNc2cccc([N+](=O)[O-])c2)cc1 | 2.2 | -4.2
CN(Cc1ccccc1)C(=O)Cn1c(=O)oc2cc(S(=O)(=O)NCc3ccccc3)ccc21 | 0.46 | 0.2
Cc1nn(C)c(Oc2cccc(Cl)c2)c1C=O | 0.08 | 2.5
COc1ccccc1C(=O)NCC(=O)NCc1cc(=O)n(C)c(=O)n1C | 0.58 | 1.6
CC(C)C(=O)Nc1cccc(NC(=S)NC(=O)c2ccc([N+](=O)[O-])cc2)c1 | 0.08 | -0.87
Cc1cccn2c(=O)c3cc(C(=O)NCc4ccco4)c(=N)n(C4CCCCC4)c3nc12 | 1.2 | 0.03
NC(=S)Nc1cc2ccccc2c2ccccc12 | 0.19 | -0.96
O=S(=O)(c1ccc(-c2csc(-c3cccnc3)n2)cc1)N1CCCC1 | 0.72 | -0.98
CCOc1ccc(-c2nc(S(=O)(=O)c3ccccc3)c(NC)o2)cc1 | 1.3 | 0.68
COc1ccc(NC(=O)CSc2ccc3nnc(-c4cccnc4)n3n2)c(OC)c1 | 0.02 | 0.15
Cc1n[nH]c(C)c1S(=O)(=O)N1CCCC(C(=O)NCc2ccc(F)cc2)C1 (stereo not given) | 1.5 | 0.68
Cc1ccccc1Cn1cc(NC(=O)c2nc3ncccn3n2)cn1 | 1.6 | 0.16
CC1(C)NC(=O)N(CC(O)CN(Cc2ccccc2)Cc2ccccc2)C1=O (stereo not given) | 0.76 | 0.79
O=c1c([N+](=O)[O-])c(N2CCCC2)c2ccccc2n1-c1ccccc1 | 0.29 | -0.9
Cc1sc(NC(=O)c2ccccc2)c(C(=O)NCCN(C)C)c1C | 0.39 | 0.97
Cc1cc(C(=O)Nc2ccc(C(=O)O)cc2)c(C)o1 | 0.01 | -0.06
CC1(C)CC(=O)C(C=NCCN2CCN(C(=S)Nc3ccc(F)cc3)CC2)=C(O)C1 | 0.86 | 0.68
COc1ccc(S(=O)(=O)ON=C2CC(C)(C)N(C(C)=O)C(C)(C)C2)cc1 | 0.19 | -0.5
O=C(NC(Cc1ccccc1)C(=O)O)/C(=C\c1cccc([N+](=O)[O-])c1)NC(=O)c1ccco1 (stereo not given) | 0.21 | -0.7
O=P(O)(O)c1ccccc1OCc1ccccc1 | 0.04 | -0.5
CC(C)CCOC(=O)C1C2C=CC3(CN(Cc4cccs4)C(=O)C13)O2 (stereo not given) | 0.01 | -0.02

Other entries follow:
SMILES | KCNQ2 enhance | KCNQ2 enhance baseline
COC(=O)Cc1ccc(NC(=S)NCCCN2CCOCC2)cc1 | 0.22 | -0.11
CC(=O)Nc1cc2cc(NS(=O)(=O)c3ccc(Cl)cc3)ccc2oc1=O | 1.6 | -0.81
Cc1nnc(NC(=O)CCC(=O)NCc2cccs2)s1 | 0.29 | -1.6
Cc1ccccc1C(=O)Nc1nnc(-c2ccc(F)cc2)o1 | 0.03 | 0.23
C/C=C(\C)C(=O)NCCN1C2=NC[C@H](C(C)C)N2C[C@H]1Cc1ccc(O)cc1 | 1.5 | -0.53
COc1ccc(-c2cc(C(F)F)n3ncc(C(=O)N4CCCCC4)c3n2)cc1 | 0.03 | 1.3
O=C(Cn1c(=O)oc2ccccc21)NCC1COc2ccccc2O1 (stereo not given) | 0.17 | 2.9
C=CCSc1nc2c(cnn2-c2ccccc2)c(=O)n1N | 1.6 | -0.07
COc1ccc(C2=NN(C(=O)c3ccccc3)C(c3ccc(OC)c(OC)c3)C2)cc1OC (stereo not given) | 0.21 | -0.28
CCCCCCCCN1C(=O)N(C)C(N(O)C(=O)NC)C1(C)C (stereo not given) | 1.4 | -1.4
Cc1c(C(=O)NC2CCCc3ccccc32)oc2ccc(S(=O)(=O)N3CCCCC3)cc12 (stereo not given) | 0.1 | -0.41
CC(C)(C)NC(=O)c1ccccc1NC(=O)c1ccc2c(c1)OCO2 | 0.83 | -0.02
COc1cc(C(=O)NNC(=O)c2ccc(NC(C)=O)cc2)cc(OC)c1OC | 0.46 | -1.3
Cc1cccc(NC(=O)CCC(=O)c2cccs2)n1 | 0.8 | -0.37
O=C(Nc1nnc(C2CCCCC2)s1)c1cccs1 | 0.01 | 0.88
C=C(C)CNC(=S)Nc1cccc(S(=O)(=O)NC2=NCCC2)c1 | 0.7 | -2.3

3 compounds out of the list, sorted by formula weight, smallest number first.
SMILES | KCNQ2 enhance | KCNQ2 enhance baseline
O=C(O)c1cc(NCc2ccc3c(c2)OCO3)ccc1N1CCOCC1 | 1.6 | -0.31
COc1cccc(CN2CCC(Oc3ccc(C(=O)NCc4ccccn4)cc3)CC2)c1O | 1.4 | -0.99
CCOC(=O)c1c(C)n(-c2ccc(C)cc2)c2c(CC(C)=O)c(Br)c(OC)c(O)c12 | 1.7 | 0

Additional structures
SMILES | KCNQ2 enhance | KCNQ2 enhance baseline
C=CCNC(=S)NNC(=O)c1ccc(OC(C)C)cc1 | 0.87 | 1.4
CCOC(=O)C1CCCN(S(=O)(=O)c2ccc3c(c2)NC(=O)CO3)C1 (stereo not given) | 0.06 | 0.47
CC(=O)Oc1c(C)c(=O)n(C)c2ccccc12 | 0.66 | -0.33
CCN(CC)C(=O)Cn1cc(S(=O)(=O)CC(=O)NCCc2ccc(OC)c(OC)c2)c2ccccc21 | 0.77 | 0.13
CCC1CCc2sc(C(=O)NCc3ccccn3)cc2C1 (stereo not given) | 0.18 | 0.18
COc1ccccc1CNC(=O)CCCNC(=O)c1ccc(Cl)cc1 | 0.09 | 1.5
Cc1ccnc(NC(=O)c2ccc(Cl)c(NC(=O)C(C)Oc3ccccc3)c2)c1 (stereo not given) | 0.02 | -1.3
COc1ccccc1N1CCN(C(CNC(=O)c2ccco2)c2cccnc2)CC1 (stereo not given) | 0.11 | -3
COc1ccc(CCNC(=O)COC(=O)c2cnc(C)cn2)cc1 | 0.75 | -0.23
CCN(C(=O)COC(=O)c1cc(S(=O)(=O)N(C)C)ccc1Cl)C1CCS(=O)(=O)C1 (stereo not given) | 0.68 | 1.8
CCC(=O)NC(=S)Nc1ccc(NC(=O)COc2ccc([N+](=O)[O-])cc2)cc1 | 0.67 | -1.3
Cc1nc(C)n(C(=O)N(c2ccccc2)c2ccccc2)n1 | 2.9 | -0.6
Cc1cccc(NC(=O)C2CCC(CNC(=O)[C@@H]3Cc4ccccc4CN3)CC2)c1 (stereo not given in full) | 1.5 | 0.16
Cc1cc(NC(=O)CCC(=O)N(c2cccnc2)C(C(=O)NC2CCCC2)c2ccccc2)no1 (stereo not given) | 0.6 | -0.93
O=C(CSc1nc(NS(=O)(=O)c2ccccc2)cc(=O)[nH]1)Nc1cccc(C(F)(F)F)c1 | 0.87 | 0.13
Cc1ccc(C(=O)C(OC(=O)CN2C(=O)c3ccccc3C2=O)c2ccccc2)cc1 (stereo not given) | 1.9 | 0.39
CC(C)c1nnc(NC(=O)CCC(=O)N2CCN(Cc3ccccc3)CC2)s1 | 0.8 | 0.26
O=C(CSc1nc(-c2ccccc2)c(-c2ccccc2)[nH]1)N1CCN(S(=O)(=O)c2ccccc2)CC1 | 0.15 | -0.26
O=CNCCCc1nc2ccccc2n1Cc1ccccc1 | 1.2 | 1
CC(C)Cn1c(SCC(=O)Nc2cccc(S(N)(=O)=O)c2)nc2ccccc2c1=O | 0.07 | -0.03
COc1ccc(N2C(=O)C3CCCN3C2c2cc(OC)c(OC)cc2OC)cc1 (stereo not given) | 0.31 | -0.79
Cc1nn2c(=S)[nH]nc2[nH]c1=O | 0.21 | -0.44
CCC(=O)Nc1c(-c2ccc(OC)cc2)c(=O)c2ccccc2n1C | 0.25 | -1.8
COc1ccc(CNC(=O)Nc2cccc(Cl)c2)cc1 | 2.6 | -0.57
Cc1ccc(N(C(=O)CNC(=O)c2ccco2)C(C(=O)NC2CCCCC2)c2cccnc2)cc1F (stereo not given) | 0.34 | 0.21
Cc1ccc(Cn2nc(C)c(NC(=O)c3nn(C)cc3Cl)c2C)cc1 | 0.76 | -0.56

A portion of the library (hit frequency here may not be typical).
